Screens as filed in PubChem BioAssay.
AF4-AF9 inh – blocks AF4 peptide binding to human AF9; P42568; 0.47% of 350,000 active; inhibition, % at 10 µM; AlphaScreen, biotin-AF4 peptide binding to FLAG-AF9;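 active means every replicate reaching a set inhibition limit, whatever the replicate mean, cut at about 25% in these data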;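 further: 0% = plate neutral control median and 100% = total signal loss; the record names both 10 and 1 µM as test concentration; the first replicate is given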
Target sequence (P42568 whole entry, looked up): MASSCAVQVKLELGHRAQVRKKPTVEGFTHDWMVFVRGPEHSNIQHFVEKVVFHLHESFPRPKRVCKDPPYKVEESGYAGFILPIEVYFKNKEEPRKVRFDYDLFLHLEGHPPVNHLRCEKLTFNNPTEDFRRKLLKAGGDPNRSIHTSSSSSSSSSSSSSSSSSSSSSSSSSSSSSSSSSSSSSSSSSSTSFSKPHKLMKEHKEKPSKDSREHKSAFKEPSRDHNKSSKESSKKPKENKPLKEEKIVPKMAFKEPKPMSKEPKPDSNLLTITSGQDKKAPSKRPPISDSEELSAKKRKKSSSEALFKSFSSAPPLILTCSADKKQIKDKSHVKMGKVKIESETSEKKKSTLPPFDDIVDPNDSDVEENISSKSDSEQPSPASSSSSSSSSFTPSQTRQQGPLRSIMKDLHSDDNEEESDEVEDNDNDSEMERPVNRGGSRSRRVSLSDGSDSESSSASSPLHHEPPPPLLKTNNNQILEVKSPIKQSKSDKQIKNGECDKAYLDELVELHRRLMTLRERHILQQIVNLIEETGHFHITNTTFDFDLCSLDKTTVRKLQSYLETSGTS
rRNA inh HTS – selective bacterial rRNA inhibition in E. coli; E. coli WT GFP vs humanized-ribosome RFP mutants, fluorescence, 24 h; stronger effect = lower value; DMSO median 0, no signal -100; GFP signal change (wild-type ribosome), % (concentration not given with the values); 1.6% of 350,000 active; AID 720706;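 active means significant combined selectivity score with lowered wild-type GFP, culture density cut under 30%, mutant RFP and density less affected; inactive means any of these conditions unmet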; further: one replicate is shown; some compounds called inactive have numbers as strong as hits
rRNA inh HTS OD600 – further read-out of rRNA inh HTS, marked with its call; OD600 change, %; measured here: OD600 growth;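 optical density of the mix in the first replicate; 0 = DMSO median and -100 = no signal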
rRNA inh HTS RFP – second read-out of rRNA inh HTS, no call of its own (marks repeat the call); RFP signal change, %; measured here: RFP humanized mutant strains;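 first replicate; 0 = DMSO median and -100 = no signal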
Active calls of the source: *; & = joins results of further samples. These rows are one share of the data, so the mix of outcomes need not match the whole.

SMILES	AF4-AF9 inh	rRNA inh HTS	rRNA inh HTS OD600	rRNA inh HTS RFP
CN1c2ccc(-c3cccc(C#N)c3)cc2[C@@H]2[C@@H](CCN2C(=O)C2CC2)[C@@H]1CO	9.2	-13	1	-4.7
COc1ccccc1S(=O)(=O)N(C)C[C@@H]1Oc2cc(/C=C/c3ccccc3)ccc2S(=O)(=O)N([C@@H](C)CO)C[C@@H]1C	2.3	4	10	-2.0
C[C@@H]1CCCCO[C@H](CN(C)Cc2ccc(C(=O)O)cc2)[C@@H](C)CN([C@@H](C)CO)C(=O)c2cc(NS(C)(=O)=O)ccc2O1	-1.0	2	2	-0.8
Cc1cc(C)c(C(O)c2ncc(-c3cccc(F)c3)[nH]2)c(C)c1 (configuration not stated)	5.6	2	-2	-1.3
C[C@@H]1CCCCO[C@@H](CN(C)S(=O)(=O)c2cn(C)cn2)[C@H](C)CN([C@@H](C)CO)C(=O)c2cc(NS(=O)(=O)c3ccccc3)ccc2O1	1.9	-3	-5	-1.5
C[C@H](CO)N1C[C@H](C)[C@@H](CN(C)Cc2ccc(-c3ccccc3)cc2)Oc2c(NC(=O)c3cnccn3)cccc2C1=O	5.5	-9	-9	6.3
CCC(=O)N1C[C@H](C)[C@@H](OC)CN(C)C(=O)c2cc(NC(=O)C3CCCCC3)ccc2OC[C@H]1C	-1.3	-1	-1	0.3
C[C@H](CO)N1C[C@H](C)[C@H](CN(C)C(=O)Nc2ccccc2)Oc2ccc(NC(=O)CCCCCC(=O)Nc3ccccc3N)cc2C1=O	-0.1	3	9	-2.5
O=C(Nc1ccccc1)Nc1ccc2c(c1)[C@H]1C[C@@H](CC(=O)N3CCCCC3)O[C@@H](CO)[C@H]1O2	-0.5	-2	6	-2.8
CN1[C@H](CO)[C@@H]2c3ccccc3N(C(=O)C3CCOCC3)C[C@@H]21	-4.1	6	9	-2.2
C[C@@H]1CN([C@@H](C)CO)S(=O)(=O)c2ccc(Br)cc2O[C@@H]1CN(C)Cc1ccc(C(=O)O)cc1	2.3	3	-1	-5.0
CN(C)CCCNC(=O)C[C@@H]1CC[C@@H]2[C@H](COc3ccc(NC(=O)C4CCC4)cc3C(=O)N2C)O1	-1.9	4	-2	1.2
C[C@H]1CCCCO[C@H](CN(C)C(=O)Nc2ccc(C(F)(F)F)cc2)[C@@H](C)CN([C@@H](C)CO)C(=O)c2cc(NS(=O)(=O)c3ccc(Cl)cc3)ccc2O1	-1.1	7	3	2.7
COc1ccccc1S(=O)(=O)N[C@@H]1CC[C@H](CCn2cc(C3CC3)nn2)O[C@H]1CO	2.2	-1	-2	0.1
C[C@H]1CN([C@@H](C)CO)C(=O)c2cc(-c3cccc(F)c3)cnc2O[C@@H]1CN(C)Cc1ccccc1	0.3	-7	-7	1.2
O=C(C[C@H]1CC[C@@H](NC(=O)C2CCC2)[C@@H](CO)O1)NCc1ccccc1Cl	-1.3	2	3	-0.8
C[C@H](CO)N1C[C@H](C)[C@H](CN(C)Cc2ccncc2)Oc2ncc(C#CCN(C)C)cc2C1=O	-2.5&-2.6	5	22	0.9
CC(C)NC(=O)C1(C#N)C=C1c1ccccc1 (configuration not stated)	0.2	25	16	7.5
CCNC(=O)[C@H]1[C@H](CO)[C@H]2Cn3c(ccc(-c4cccc(OC)c4)c3=O)[C@H]2N1Cc1nccs1	1.8	0	1	-1.5
C[C@H](O)C#Cc1ccc([C@H]2[C@@H](CO)N3CCCCN(C(=O)c4cccc(F)c4)C[C@@H]23)cc1	-5.2	0	4	-2.1
CC(=O)N1[C@H](C(=O)N2CCc3ccccc3C2)[C@@H](CO)[C@@H]2Cn3c(ccc(-c4cccnc4)c3=O)[C@@H]21	-0.9	8	-5	-0.3
C[C@@H]1CN([C@@H](C)CO)C(=O)Cc2cc(NC(=O)Nc3ccc(C(F)(F)F)cc3)ccc2O[C@@H]1CN(C)Cc1ccc(Oc2ccccc2)cc1	-20	6	16	0.6
COc1ccc(NC(=O)Nc2ccc3c(c2)C(=O)N([C@@H](C)CO)C[C@H](C)[C@H](CN(C)Cc2ccc(Oc4ccccc4)cc2)O3)cc1	-5.6	2	-6	10
CCCN(CCC)Cc1cc(=O)oc2ccccc12	-1.9	28	24	3.0
COc1ccccc1NC(=O)N[C@@H]1CC[C@H](CCNS(=O)(=O)c2ccccc2)O[C@@H]1CO	0.9	-1	3	-1.5
O=C(N[C@H]1CC[C@@H](CC(=O)N2CCOCC2)O[C@H]1CO)c1ccc2c(c1)OCO2	-0.9	-1	6	-2.7
COc1ccc(NC(=O)N(C)C[C@@H]2Oc3ccc(NC(=O)Nc4ccccc4)cc3C(=O)N([C@@H](C)CO)C[C@@H]2C)cc1	1.3	-3	0	0.6
CO[C@@H]1CN(C)C(=O)c2cc(NS(C)(=O)=O)ccc2OC[C@H](C)N(CC2CCCCC2)C[C@@H]1C	-2.8	0	3	-0.5
C[C@@H]1CN([C@H](C)CO)C(=O)CCCn2nncc2CO[C@@H]1CN(C)S(=O)(=O)c1ccc(-c2ccccc2)cc1	3.9	-4	-18	9.2
COCC(=O)N1C[C@@H]2[C@H](c3ccccc31)[C@H](CO)N2Cc1ccccc1Cl	-13	2	1	-1.6
COc1cccc(NC(=O)N[C@@H]2CC[C@@H](CC(=O)N3CCCCC3)O[C@@H]2CO)c1	0.5	-2	2	-1.0
CO[C@H]1CC[C@@H]2CCOc3c(C#N)cccc3C(=O)N(C)C[C@@H](OC)[C@H](C)C(=O)N(C)C[C@@H]1O2	0.1	1	2	-3.1
CCCC#Cc1cnc2c(c1)C(=O)N([C@H](C)CO)C[C@H](C)[C@@H](CN(C)C(=O)c1cccnc1)O2	-3.4	-3	2	0.2
Cc1ccc(S(=O)(=O)N(C)C[C@H]2Oc3ccc(NC(=O)CCN4CCOCC4)cc3C(=O)N([C@H](C)CO)C[C@@H]2C)cc1	-1.2	-2	4	-0.4
O=C(C[C@H]1C[C@@H]2c3cc(NC(=O)Nc4ccc(C(F)(F)F)cc4)ccc3O[C@@H]2[C@H](CO)O1)NCCc1ccccc1	-0.2	0	-9	0.4
CCC(=O)N1C[C@@H]2[C@H](c3ccccc31)[C@H](CO)N2Cc1cc(F)ccc1F	-1.0	-3	-1	1.3
COCCN(Cc1cc2cc(C)ccc2n2nnnc12)C(=S)Nc1ccc(OC)cc1	-8.6	9	5	2.7
CN(C)CC#Cc1ccc([C@H]2[C@@H](CO)N3CCCCN(C(=O)Nc4ccc(F)cc4)C[C@@H]23)cc1	5.3	0	6	2.2
CCCC#Cc1ccc2c(c1)O[C@H](CN(C)C(=O)CC)[C@H](C)CN([C@@H](C)CO)S2(=O)=O	3.4	-6	-7	1.2
CC(C)NC(=O)N1[C@@H](CO)[C@@H]2c3ccccc3N(C(=O)Nc3cccc(Cl)c3)C[C@@H]21	-0.3	-7	-12	-1.3
CO[C@H]1CN(C)C(=O)c2cc(NC(=O)C3CCCCC3)ccc2OC[C@@H](C)NC[C@@H]1C	-1.6	0	2	0.2
CC(=O)N(C[C@H]1N[C@H](CO)[C@@H]1c1ccc(-c2cccnc2)cc1)C1CCCC1	-2.4&1.2	1	-1	-0.4
COCC(=O)N1C[C@H](C)[C@H](OC)CN(C)C(=O)c2ccc(NC(=O)c3cc(C)on3)cc2OC[C@@H]1C	-0.6	2	4	0.3
COc1ccc(-c2csc(C(C)(NC(C)=O)c3ccccc3)n2)cn1 (configuration not stated)	-0.4	5	5	1.9
CCc1nc2ccc(C(=O)N3CCCC(C(N)=O)C3)cn2c1N(C=O)CC (configuration not stated)	-1.4	8	12	-3.1
COc1ccc(C(C(=O)Nc2ccc3c(c2)OCCO3)n2c(=O)c(-c3ccco3)nc3ccccc32)cc1 (configuration not stated)	2.9	6	16	2.1
O=C(C[C@@H]1C[C@@H]2c3cc(NC(=O)Cc4ccncc4)ccc3O[C@@H]2[C@@H](CO)O1)NCCN1CCCCC1	-4.9	3	3	0.2
O=C(C[C@H]1CC[C@@H]2[C@H](COC[C@@H](O)CN2Cc2ccc(Cl)cc2)O1)NCc1ccccc1Cl	0.9	-25	-66	7.0
COc1ccc(NC(=O)Nc2ccc3c(c2)[C@@H]2C[C@H](CC(=O)NCc4ccc5c(c4)OCO5)O[C@H](CO)[C@@H]2O3)cc1	-0.2	2	12	-2.7
Cc1noc(C)c1S(=O)(=O)Nc1ccc2c(c1)C(=O)N([C@H](C)CO)C[C@H](C)[C@@H](CN(C)CC1CCCCC1)OCCCC[C@@H](C)O2	2.2	4	1	-1.2

The results go on.
SMILES	AF4-AF9 inh	rRNA inh HTS	rRNA inh HTS OD600	rRNA inh HTS RFP
COCOc1cccc(CN2CCC(C)(Oc3ccc(C(C)=O)cc3)C2)c1 (configuration not stated)	2.1	7	18	0.8
COc1ccc(CN(C)C[C@@H]2Oc3ccc(NC(=O)CCN4CCOCC4)cc3CC(=O)N([C@@H](C)CO)C[C@H]2C)cc1	4.8	1	1	0.1
CN(C)C(=O)[C@@H]1[C@@H](CO)[C@@H]2Cn3c(cccc3=O)[C@H]1N2CC1CCOCC1	-8.1	1	6	-2.3
C[C@@H]1CCCCO[C@@H](CN(C)C(=O)c2ccncc2)[C@@H](C)CN([C@H](C)CO)C(=O)c2cc(NS(=O)(=O)c3cccs3)ccc2O1	-2.9	7	14	-1.4
COc1ccc2c3c(n(C)c2c1)[C@H](CO)NCC31CN(Cc2cc(-c3ccccc3)on2)C1	40*	-8	-3	-0.4
Clc1cccc(CNc2ccn3nc(-c4cccc(Cl)c4)cc3n2)c1	-2.2	-24	-49	32
COc1ccc(NC(=O)Nc2ccc3c(c2)C(=O)N([C@H](C)CO)C[C@@H](C)[C@@H](CN(C)Cc2ccc(C(=O)O)cc2)OCCCC[C@@H](C)O3)cc1	3.7	1	2	1.0
CCCNC(=O)N1[C@@H](CO)[C@H](c2ccccc2)C12CN(C(=O)CC)C2	-11	-1	0	-0.5
CC(C)COC(=O)N(C)C[C@@H]1OCc2ccccc2-c2ccccc2C(=O)N([C@H](C)CO)C[C@@H]1C	-2.8	0	0	-0.4
CCOC(=O)C1=CCC(c2ccccc2)N(S(=O)(=O)c2ccccc2C)C1 (configuration not stated)	-1.4	-8	-17	-8.9
CO[C@@H]1CN(C)C(=O)c2ccc(NS(C)(=O)=O)cc2OC[C@@H](C)N(C(=O)NC(C)C)C[C@@H]1C	-1.5	2	0	-1.2
C[C@@H]1CN([C@H](C)CO)C(=O)c2cc(NS(=O)(=O)c3ccccc3)ccc2O[C@@H](C)CCCCO[C@@H]1CN(C)S(=O)(=O)c1cn(C)cn1	5.6	-1	-3	1.4
CN1C(=O)c2cc(NC(=O)C3CCOCC3)ccc2OC[C@@H]2O[C@@H](CC(=O)NCC3CCCCC3)CC[C@H]21	-1.7	-2	-3	2.4
CO[C@@H]1CN(C)C(=O)c2cc(NC(=O)c3nc4ccccc4s3)ccc2OC[C@H](C)NC[C@H]1C	-1.1	-4	-3	1.7
C[C@@H]1CN([C@H](C)CO)C(=O)c2cccc(NC(=O)Nc3ccc(C(F)(F)F)cc3)c2O[C@H]1CN(C)C(=O)Nc1ccc(C(F)(F)F)cc1	1.0	-7	5	-2.0
CO[C@@H]1CN(C)C(=O)c2ccc(NS(=O)(=O)c3ccc(F)cc3)cc2OC[C@H](C)NC[C@@H]1C	-1.6	2	1	0.3
